TRPV1 PAM – human TRPV1 potentiation | Q8NER1 | TRPV1-expressing cells, Fluo-8 calcium influx, capsaicin EC20 potentiation; host cell line not named in the record; control for the full effect not named in the record | potentiation, % at 8.33 µM | actives 0.02% (n = 320,000); active means potentiation above 80%; inconclusive means 30% to 80%; inactive means below 30%; note: 0% is about no effect
Target sequence (Q8NER1 whole entry, looked up): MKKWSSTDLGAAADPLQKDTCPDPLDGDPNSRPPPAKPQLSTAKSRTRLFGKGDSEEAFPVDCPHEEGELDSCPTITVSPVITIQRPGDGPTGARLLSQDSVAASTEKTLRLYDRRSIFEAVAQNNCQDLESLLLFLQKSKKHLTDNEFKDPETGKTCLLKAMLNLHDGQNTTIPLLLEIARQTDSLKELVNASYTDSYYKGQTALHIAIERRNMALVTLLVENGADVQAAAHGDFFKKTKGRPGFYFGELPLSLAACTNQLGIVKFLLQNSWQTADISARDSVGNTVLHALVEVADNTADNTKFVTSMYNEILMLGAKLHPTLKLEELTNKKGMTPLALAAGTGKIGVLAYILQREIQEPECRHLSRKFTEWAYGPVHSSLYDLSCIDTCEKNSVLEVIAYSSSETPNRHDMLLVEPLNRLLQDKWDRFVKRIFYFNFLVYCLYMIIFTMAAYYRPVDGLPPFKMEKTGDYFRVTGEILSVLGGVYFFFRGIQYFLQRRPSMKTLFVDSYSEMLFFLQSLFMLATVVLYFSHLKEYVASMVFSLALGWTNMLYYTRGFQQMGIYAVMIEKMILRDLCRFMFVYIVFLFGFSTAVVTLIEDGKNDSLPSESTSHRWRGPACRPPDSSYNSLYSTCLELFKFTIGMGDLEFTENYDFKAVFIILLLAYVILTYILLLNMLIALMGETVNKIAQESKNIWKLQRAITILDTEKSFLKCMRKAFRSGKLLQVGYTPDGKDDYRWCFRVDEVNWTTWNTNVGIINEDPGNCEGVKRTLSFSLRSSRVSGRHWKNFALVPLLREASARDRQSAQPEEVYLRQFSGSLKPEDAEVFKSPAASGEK
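Fluo-8 calcium influx in TRPV1-expressing cells, kinetic read (ex 480/em 520 nm). Compound added and read 3 min for agonist activity, followed by capsaicin at EC20 final and 2 min further read for enhancement.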
ClpP mod – qHTS Assay for Activators of ClpP; actives 1.9% (n = 340,000); purified B. subtilis ClpP, FRET peptide cleavage, 20 min; Potency, µM (titrated, usually from 57.5 µM), for inactives: top-dose activity change, negative = active; ATP-dependent Clp protease proteolytic subunit (Bacillus subtilis (strain 168)), P80244; active = well fitted falling curve with a large enough effect; inconclusive = small, poorly fitted or top-dose-only effect; inactive = no such curve, though single readings can be large or run the other way; note: potency is the fitted concentration of half-maximal effect; the source files actives as falling curves though it sought activators and does not explain the sign; nearly all actives have a fitted effect of over 65% in size; many hits overshoot -100%
Target sequence (P80244 whole entry, looked up): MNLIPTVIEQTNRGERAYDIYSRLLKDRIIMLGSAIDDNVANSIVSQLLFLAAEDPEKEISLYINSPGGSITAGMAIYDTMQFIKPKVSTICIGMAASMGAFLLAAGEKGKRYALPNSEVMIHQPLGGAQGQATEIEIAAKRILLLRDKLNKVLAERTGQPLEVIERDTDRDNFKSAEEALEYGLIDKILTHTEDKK
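FRET quenching reversal measured ClpP activation: 10 microg/mL B. subtilis ClpP at pH 8 with the FRET-FV decapeptide, read at 430 nm after 320 nm excitation. The 20-min minus 0-min signal was scaled between DMSO/no-enzyme wells and ADEP (5.8 microM final).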
TRPML1 agonist – activates the human TRPML1 channel | TRPML1-expressing cells, Ca2+ dye fluorescence, FDSS; host cell line not named in the record; reference of the full effect not given here | activation, % (no concentration beside the values) | actives 0.12% (n = 410,000) | AID 624414; in the data active = activation above about 50%; inconclusive = about 30% to 50%; inactive = below about 30%; note: 0% is about no effect; the text of the record puts the active cut at 80%
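Cells: TRPML1-DL, 1X Tet inducer, ~16 h at 37 degrees C/5% CO2. Dye: ABD Ca8 no-wash + quencher, 45-90 min RT. Read: 10 s baseline, compound add, 110 s agonist phase; 54-4 EC80 (4uM final), 110 s antagonist phase.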
PINK1 expr mod – modulators of PINK1 expression | AID 624263 | Potency, µM (top dose mostly 76.6 µM), for the others: at the highest dose activation (PINK1 increase), hits mostly activators | PINK1 immunofluorescence, high-content cytometry, 24 h | actives 0.2% (n = 410,000); active = well fitted activation curve with a large enough effect; inconclusive = small, poorly fitted or top-dose-only effect; inactive = flat fitted curve, though single readings scatter; cell line not stated here;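 note: potency is the fitted concentration of half-maximal effect; % of control where 0% means no effect; nearly all actives have a fitted effect of over 65% in size; a mitochondrial uncoupler was the plate control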
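PINK1 protein, normally rapidly degraded, was detected by immunofluorescence after 24 hour compound treatment of a stable cell line. Titration data (5 concentrations) came from laser-scanning cytometry, with CCCP-treated wells as controls.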
TRPML1 inh – human mucolipin-1 channel inhibition | Q9GZU1 | AID 624415 | activity change, negative = inhibition, % (no concentration beside the values) | actives 0.02% (n = 390,000) | TRPML1-inducible cells, Ca2+ dye fluorescence, FDSS; hits give low values; inhibition of EC80 agonist-evoked calcium signal; in the data active means activity change below about -50%; inconclusive means about -30% to -50%; inactive means above about -30%;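 note: stimulus is agonist 54-4 at its EC80 concentration; % is set by controls: 0 for no effect and ±100 for the full control effect; compound concentration not given in the record; the text of the record puts the active cut at -80%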
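Calcium fluorescence in TRPML1-DL cells induced overnight with Tet: a 110 s read after compound pin addition, then a 110 s antagonist read after challenge with 54-4 at 4 uM final (EC80).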
Sfp PPTase inh – Sfp phosphopantetheinyl transferase inhibition. Biochemical Sfp PPTase activity, qHTS. Potency, µM, inactives show max response, negative = inhibition, usual class: inhibitors. actives 3.5% (n = 310,000); active = well fitted inhibition curve with a large enough effect; inconclusive = small, poorly fitted or top-dose-only effect, or another doubt; inactive = no such curve, though single readings can be large or run the other way;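 note: the enzyme is Sfp with the accession as filed and its product quenches rhodamine fluorescence; potency is the fitted concentration of half-maximal effect; 0% = enzyme reaction without inhibitor and -100% = no enzyme wells; top concentration of the series not given in the record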
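Buffer: 50 mM Hepes-Na pH 7.6, 10 mM MgCl2, 0.01% Nonidet P-40, 0.01% BSA. Enzyme 15 nM, pre-exposed to compound 15 min; substrates then added and fluorescence change tracked over 30 min.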
Menin-MLL FL inh – menin-MLL binding inhibition, fluorescein peptide; 290,000 tested, under 10 active; Fluorescence polarization, fluorescein-MLL peptide displacement from menin; FP activity change, % at 61.4 µM; inconclusive = falling polarisation curve, or a change in total fluorescence; inactive = total fluorescence flat and polarisation flat or rising; no compound was filed as active; the % refers to the polarisation; negative = inhibition;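 note: % of control where 0% means no effect; inhibitors lower the polarisation; unlabelled MLL peptide was the positive control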
* marks the source's active call; other numbers are inactive results; [ ] = another dose, or the depositor's remark.

Cc1ccc(NC(=O)NC(=O)CSc2nnnn2C)c(C)c1 was read as TRPV1 PAM -3.0, ClpP mod -1.4%, TRPML1 agonist 0.7, PINK1 expr mod 1.5%[38.3 µM], TRPML1 inh -6.1, Sfp PPTase inh 4.9% and Menin-MLL FL inh -0.2.
For COc1ccccc1CNc1nc(-c2ccco2)nn1S(=O)(=O)c1ccc(Cl)cc1 the results were ClpP mod 0.0%, TRPML1 agonist 3.2, PINK1 expr mod 1.6% and TRPML1 inh 14.0.
CCC1CN2CCc3cc(OC)c(OC)cc3C2CC1CC1c2cc(OC)c(OC)cc2CCN1C(=O)C(Cc1c[nH]c2ccccc12)NC(=O)OC(C)(C)C (configuration not stated) was read as ClpP mod 50.0%, TRPML1 agonist 0.0, PINK1 expr mod 11.5% and TRPML1 inh -6.1.
O=S(=O)(c1cccs1)n1cnc2ccccc21 was read as TRPV1 PAM -12.2, ClpP mod -0.5%, TRPML1 agonist -1.5, PINK1 expr mod -0.7%, TRPML1 inh -2.6, Sfp PPTase inh 5.7% and Menin-MLL FL inh 1.7.
For Cc1ccsc1/C=N/N=C/c1sccc1C the results were TRPV1 PAM -19.2, ClpP mod 0.7%, TRPML1 agonist 0.3, PINK1 expr mod 3.0%, TRPML1 inh 0.6, Sfp PPTase inh -7.6% and Menin-MLL FL inh 0.9.
`CC(C)OP(=O)(c1ccc(N(C)C)cc1)C(O)c1c(Cl)cccc1Cl` (configuration not stated) gave TRPV1 PAM -2.3, ClpP mod -1.2%, TRPML1 agonist 3.8, PINK1 expr mod -1.9%, TRPML1 inh 28.0, Sfp PPTase inh 2.3% and Menin-MLL FL inh 1.4.
For Cc1ccc(/C=C/c2onc(C)c2S(=O)(=O)N2CCC(C(=O)NCc3ccco3)CC2)cc1 the results were ClpP mod -2.6%, TRPML1 agonist -0.7, PINK1 expr mod 1.7% and TRPML1 inh 32.7.
Screening O=C(NCCc1ccccn1)C(F)(F)C(F)(F)C(F)(F)C(F)(F)C(F)(F)C(F)F returned TRPV1 PAM 11.2, ClpP mod -1.8%, TRPML1 agonist -0.2, PINK1 expr mod 0.7%, TRPML1 inh -6.3, Sfp PPTase inh -8.8% and Menin-MLL FL inh 3.8.
`COC(=O)CC1C(=O)NCCN1C(=O)CSc1nc2ccccc2c(=O)n1CC(C)C` (configuration not stated) gave TRPV1 PAM -4.5, TRPML1 agonist -0.6, PINK1 expr mod 1.8%, TRPML1 inh -1.2, Sfp PPTase inh 5.9% and Menin-MLL FL inh 3.8.
For O=C(NCc1ccccc1)C1=C[C@@H](C2CC2)C[C@@H](OCCCCO)O1 the results were TRPV1 PAM 2.6, ClpP mod -0.6%, TRPML1 agonist 1.8, PINK1 expr mod -1.3%, TRPML1 inh 15.6, Sfp PPTase inh -2.7% and Menin-MLL FL inh -0.5.
For COc1cccc(C2=CC(c3ccccc3)n3nnnc3N2)c1 (configuration not stated) the results were ClpP mod -0.4%, TRPML1 agonist -0.3, PINK1 expr mod 9.3%[38.3 µM], TRPML1 inh 10.0, Sfp PPTase inh 44.7µM* and Menin-MLL FL inh inconclusive.
`CCc1cc(C(=O)N2CCCC(C(=O)c3cccc(OC(C)C)c3)C2)n(C)n1` (configuration not stated) gave TRPV1 PAM -1.1, TRPML1 agonist -0.9, PINK1 expr mod -1.7%, TRPML1 inh -8.9, Sfp PPTase inh 5.4% and Menin-MLL FL inh -0.2.
Screening O=[N+]([O-])c1ccc(C23CC4CC(CC(O)(C4)C2)C3)cc1 returned TRPV1 PAM -4.8, Sfp PPTase inh 14.1% and Menin-MLL FL inh 0.5.
Screening O=C(c1ccc(-c2ccccc2)cc1)C1CCCN(C(=O)c2ccncc2)C1 (configuration not stated) returned TRPV1 PAM -0.4, TRPML1 agonist -0.3, PINK1 expr mod -1.0%, TRPML1 inh -4.4, Sfp PPTase inh 17.1% and Menin-MLL FL inh -2.8.
c1ccc2[nH]c3cc4ncnc4cc3nc2c1 was read as TRPV1 PAM 27.2, TRPML1 agonist 8.8, PINK1 expr mod 19.1%, TRPML1 inh -21.9, Sfp PPTase inh -8.7% and Menin-MLL FL inh inconclusive.
Cc1ccc(-c2nnn(CC(=O)N(Cc3ccccc3F)C(C(=O)NC3CCCC3)c3ccncc3)n2)o1 (configuration not stated) was read as TRPV1 PAM 11.5, ClpP mod 5.2%, TRPML1 agonist 1.9, PINK1 expr mod 1.7%, TRPML1 inh 15.1, Sfp PPTase inh 28.2µM* and Menin-MLL FL inh 6.2.
`CCN(CC)c1ccc(S(=O)(=O)N2CCOCC2)cc1NC(=O)COC(=O)c1cccnc1SC` gave TRPV1 PAM -9.3, TRPML1 agonist 0.8, PINK1 expr mod -2.5% and TRPML1 inh 0.1.
For CCOC(=O)N1CCN(C(=O)c2oc3ccc(S(=O)(=O)N4CC(C)CC(C)C4)cc3c2C)CC1 (configuration not stated) the results were TRPV1 PAM -5.5, ClpP mod 1.2%, TRPML1 agonist 3.5, PINK1 expr mod 2.2%, TRPML1 inh 8.6, Sfp PPTase inh -13.0% and Menin-MLL FL inh 3.0.
Screening CN1CCc2c(sc(NC(=O)c3cc(Cl)sc3Cl)c2C(N)=O)C1 returned TRPV1 PAM -20.9, ClpP mod 1.0%, TRPML1 agonist 27.7, PINK1 expr mod 5.7%, TRPML1 inh -6.4, Sfp PPTase inh -11.2% and Menin-MLL FL inh 20.3.
Screening COC(=O)C(C)C1Sc2ccccc2NC1=O (configuration not stated) returned TRPV1 PAM 9.9, ClpP mod 0.5%, TRPML1 agonist -0.2, PINK1 expr mod 1.1%, TRPML1 inh -4.0, Sfp PPTase inh 8.5% and Menin-MLL FL inh 0.7.
Screening CCOc1ccc(N(C)S(=O)(=O)c2cc(-c3cc(C)no3)ccc2CC)cc1 returned TRPV1 PAM inconclusive, ClpP mod 1.0%, TRPML1 agonist 4.1, PINK1 expr mod 1.9%, TRPML1 inh 78.0 and Sfp PPTase inh 2.7%.
Screening C=CS(=O)(=O)c1c2cc(OC)ccc2nc2ccc(OC)cc12 returned ClpP mod -2.6%, TRPML1 agonist 8.4, PINK1 expr mod 17.4% and TRPML1 inh -8.4.
Screening COc1cc(NC(=O)c2cc(-c3ccco3)on2)cc(OC)c1OC returned TRPV1 PAM 9.2, TRPML1 agonist 1.6, PINK1 expr mod 5.8%, TRPML1 inh -6.0, Sfp PPTase inh -23.1% and Menin-MLL FL inh 3.0.
Screening Cn1c(=O)c2c(nc(SCCCC#N)n2Cc2ccccc2F)n(C)c1=O returned TRPV1 PAM 3.5, ClpP mod -26.4%, TRPML1 agonist 0.5, PINK1 expr mod -0.2%, TRPML1 inh -5.1, Sfp PPTase inh inconclusive and Menin-MLL FL inh -1.2.
`Cn1nccc1C(=O)N1CCCC(C(=O)c2ccc(C(F)(F)F)cc2)C1` (configuration not stated) gave TRPV1 PAM -4.1, ClpP mod -0.1%, TRPML1 agonist -0.9, PINK1 expr mod -1.0%, TRPML1 inh 5.7, Sfp PPTase inh 15.6% and Menin-MLL FL inh -0.9.
For CCN1CCN(c2ccc(S(=O)(=O)N3CCOCC3)cc2NC(=O)c2ccccc2OC(F)F)CC1 the results were TRPV1 PAM -6.0, TRPML1 agonist 1.0, PINK1 expr mod -0.3% and TRPML1 inh 16.5.
O=C(NNCc1ccccc1)c1ccccn1 was read as TRPML1 agonist -0.1, PINK1 expr mod -2.6% and TRPML1 inh -12.0.
Screening CS(=O)(=O)N(CC(=O)N1CCOCC1)Cc1ccc(Cl)cc1 returned TRPV1 PAM -7.1, ClpP mod -1.9%, TRPML1 agonist -0.2, PINK1 expr mod 1.7%, TRPML1 inh 0.7, Sfp PPTase inh 24.4% and Menin-MLL FL inh 0.2.
`CCOC(=O)N1CCN(C(=S)NC2CCCC2)CC1` gave TRPV1 PAM -11.5, ClpP mod -2.1%, TRPML1 agonist 0.1, PINK1 expr mod 0.9%, TRPML1 inh -0.2, Sfp PPTase inh 11.0% and Menin-MLL FL inh -0.7.
O=C(Cc1ccc(Cl)cc1)Nc1ccccc1C(=O)N1CCCCC1 was read as TRPV1 PAM 4.9, ClpP mod -4.6%, TRPML1 agonist 0.1, PINK1 expr mod 2.5%, TRPML1 inh -6.4, Sfp PPTase inh 17.3% and Menin-MLL FL inh 6.4.
COc1ccc(-n2ncc3c(N(C)C4CCCCC4)ncnc32)cc1 was read as TRPV1 PAM 28.1, ClpP mod 3.9%, TRPML1 agonist 0.1, PINK1 expr mod 2.6%, TRPML1 inh 9.1, Sfp PPTase inh -27.1% and Menin-MLL FL inh 0.5.
Screening Cc1cc(C)cc(OCCNC(=O)C2CCN(S(=O)(=O)c3ccccc3)CC2)c1 returned TRPV1 PAM -0.8, ClpP mod -0.9%, TRPML1 agonist 1.1, PINK1 expr mod 0.8%, TRPML1 inh 5.7, Sfp PPTase inh 12.1% and Menin-MLL FL inh -1.4.
Screening CCc1nc(N2CCN(C(=O)c3ccccc3)CC2)c(C#N)c2c1COC(C)(C)C2 returned TRPV1 PAM -1.8, ClpP mod 25.1µM*, TRPML1 agonist 0.8, PINK1 expr mod -1.3%, TRPML1 inh -9.6, Sfp PPTase inh -2.2% and Menin-MLL FL inh 1.9.
`CCCn1cc(S(=O)(=O)c2ccccc2)c(=O)c2cc(F)c(N3CCCCCC3)cc21` gave ClpP mod 28.2µM*, TRPML1 agonist 1.5, PINK1 expr mod -0.6% and TRPML1 inh 17.8.
COC(=O)c1ccc(NC(=O)c2cnc3scc(C)n3c2=O)cc1 was read as TRPV1 PAM -9.2, Sfp PPTase inh 13.6% and Menin-MLL FL inh 1.0.
CN1CCN(S(=O)(=O)c2cc(Cl)c(Cl)cc2Cl)CC1 was read as TRPV1 PAM -10.7, ClpP mod 1.3%, TRPML1 agonist 0.9, PINK1 expr mod -0.3%, TRPML1 inh -4.0, Sfp PPTase inh 2.4% and Menin-MLL FL inh -10.0.
For Cc1ccc(-c2c(C(=O)O)c(C(=O)O)c3n2CCC3)cc1 the results were TRPV1 PAM 22.1, ClpP mod 3.5%, TRPML1 agonist -0.2, PINK1 expr mod 2.2%, TRPML1 inh -14.3, Sfp PPTase inh 15.3% and Menin-MLL FL inh 1.8.
COc1ccccc1OC(C)c1nnc(SCC(=O)Nc2c(C)n(C)n(-c3ccccc3)c2=O)n1-c1ccccc1 (configuration not stated) was read as TRPV1 PAM 1.4, ClpP mod -1.2%, TRPML1 agonist 0.2, PINK1 expr mod 0.0%[38.3 µM], TRPML1 inh 2.0, Sfp PPTase inh 14.9% and Menin-MLL FL inh 8.6.
For COc1ccc(NC(=O)CC2C(=O)N(c3cccc(OC)c3)C(=O)N2Cc2ccc3c(c2)OCO3)cc1 (configuration not stated) the results were ClpP mod 0.7%, TRPML1 agonist -0.1, PINK1 expr mod 2.0% and TRPML1 inh 12.6.
